NPYLR7 ag: activates Aedes aegypti NPYLR7 receptor; actives 0.15% (n = 270,000); activation, % at 10 µM; HEK293T NPYLR7/Galpha15, GCaMP6s calcium fluorescence; AID 1259423; in the data active = activation above about 40%;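 note: 0% = vehicle and 100% = reference agonist at the receptor; some compounds past the cut are filed as inactive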
NPYLR7 ag max-min: second read-out of NPYLR7 ag, no call of its own (marks repeat the call); activation, %; measured here: Max-Min RFU normalised activation; some inactives read as strong as hits;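 span of the calcium signal over five minutes; 0% = vehicle and 100% = native peptide agonist; compound fluorescence can raise it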
An asterisk follows results filed as active; & = joins results of further samples. An excerpt (hit frequency here may not be typical).

SMILES	NPYLR7 ag	NPYLR7 ag max-min
NC(=O)c1cncc(N2CCCC(C(=O)c3ccc4ccccc4c3)C2)n1 (stereo not drawn)	13	9
COc1ccc(-c2c(C)nn3c(-n4ccnc4)cc(C)nc23)cc1OC	1	9
O=C(c1cccc2c1OCCO2)N1CCN(C(c2ccccc2)c2ccc(Cl)cc2)CC1 (stereo not drawn)	34	22
CC(NC(=O)c1ccc(NC(=O)c2ccco2)cc1)C1CC2CCC1C2 (stereo not drawn)	-4	-2
CCn1c(C)c(C(=O)CN(CC2CCCO2)S(=O)(=O)c2cccc(C(F)(F)F)c2)c(C)c1C(=O)OC (stereo not drawn)	-11	-1
O=C(CN1C(=O)CSc2ccccc21)NCc1ccccc1OC(F)F	24	21
Cc1ccc(CN(CC(O)COCc2ccco2)CC2CCCO2)s1 (stereo not drawn)	28	31
CNC(=S)NNc1nc(N2CCOCC2)nc(N2CCOCC2)n1	-1	5
NC(=O)c1cnc(N2CCC(C3CCCCCN3C(N)=O)CC2)c(Cl)c1 (stereo not drawn)	3	3
CSc1ccc(NC(=O)N2CCc3nc(C)nc(N(C)C)c3C2)cc1	13	16
O=C(Nc1cccnc1)c1cn(CC2CCCO2)cc2c(=O)n(-c3ccccc3)nc1-2 (stereo not drawn)	7	5
O=c1[nH]nc(-c2ccccc2)c2sc(N3CCCC3)nc12	-2	-3
CCOCCn1c(N2CCCCC2)nc2c1c(=O)[nH]c(=O)n2C	3	5
CC(NC(=O)c1cnn2c1CCCC2)C1=CCCCC1 (stereo not drawn)	1	0
NC(=O)c1cc2ccc(O)cc2oc1=Nc1ccccc1	-4	-7
CC(C)c1nc(N2CCc3nnc(CCc4ccccc4)n3CC2)no1	-10	-17
c1ccc(CN2CCCn3cccc3C2c2ccoc2)nc1 (stereo not drawn)	11	11
Cc1[nH]c(=O)c(C(=O)N2CCC(C(O)CC(C)C)CC2)c(C)c1Cl (stereo not drawn)	23	18
COc1cccc(N2C(=O)CN(CCC(C)C)CC2C)c1 (stereo not drawn)	13	-1
COc1cccc(-n2c(-c3ccc(Cl)cc3)cc(C(=O)NCc3ccc(F)cc3)c2C)c1	-8	3
Cc1ccc(NC(=O)CC2(CC(=O)N3CCOCC3)CCCC2)c(C)c1	0	-1
Cn1nc2c(c1NC(=O)c1ccc(Cc3ccccc3)cc1)CCC2	9	10
O=c1c(Cl)c(NCC2COc3ccccc3C2)cnn1-c1ccccc1 (stereo not drawn)	1	-2
O=S(=O)(c1ccc(Nc2ccc(F)cc2)nc1)N1CCOCC1	1	-1
Cc1cc(C)cc(-n2ccnc(NCCc3c[nH]c4ccccc34)c2=O)c1	2	-1
COc1cccc(-n2cc(CN(C)Cc3nc[nH]c3C)cn2)c1	5	4
C=CCN1C[C@H]2COc3cc(OC)ccc3[C@H]2N(C(=O)OCC)CCC1=O	1	5
COC(=O)c1sccc1NC(=O)C1C2C=CC(O2)C1C(=O)O (stereo not drawn)	-1	-1
COc1cc(=O)n(-c2ccccc2C)nc1C(=O)Nc1ccc(O)cc1	5	4
CN(Cc1cnn(-c2ccccc2)c1)c1ccncc1Cl	3	0
CCc1nc2n(n1)C(=O)C(C(c1ccccc1F)N1CCC3(CC1)OCCO3)S2 (stereo not drawn)	-6	-10
COc1ccc(/C=C/C(=O)N2CCC(n3c(=O)oc4cc(C)ccc43)CC2)c(Cl)c1OC	18	15
CC(CO)CN(Cc1ccccc1)Cc1ccc(C(F)(F)F)nc1 (stereo not drawn)	10	1
CCN1CCN(c2nc(-c3ccc(OC)cc3)nc3cc(Cl)ccc23)CC1	30	38
CCC(NC1CCN(S(C)(=O)=O)CC1)c1cccs1 (stereo not drawn)	25	7
CCOC(=O)N1CCC(NC(C)c2nc3c(s2)CCCC3)CC1 (stereo not drawn)	-1&4	-2&0
Cc1ccc(C)c(S(=O)(=O)N2Cc3ccccc3CC2C(=O)OC(C)C(N)=O)c1 (stereo not drawn)	-15	-13
Cc1ccc(-c2cc(C(=O)N(C3CC3)C(C)c3ccco3)on2)cc1 (stereo not drawn)	15	14
CCCc1nnc2sc(Cc3ccccc3Cl)nn12	5	5
N#CC1(NC(=O)COc2ccc(C(=O)c3ccc(F)cc3)cc2)CCCCC1	1	10
CCOc1ccc(N=C2SC(C(=O)Nc3cccc(Cl)c3)CC(=O)N2C)cc1 (stereo not drawn)	3	1
CCCCCOc1ccc(C(=O)Nc2ccccc2C(C)C)cc1OCCCCC	22	0
C=CCNC(=O)Nc1cn(C)c2ccccc12	-1	-2
O=C(NCC1CCCN(Cc2ccncc2)C1)C1(C(F)(F)F)CC1 (stereo not drawn)	-5	-12
COCCN1C(=O)/C(=C\c2cccs2)SC1=S	-2	-8
COCC(NC(=O)CCN1CCCCO1)c1ccnn1C (stereo not drawn)	8	7
COc1ccc(NC(=O)N2[C@H]3CCNC[C@@H]2CC3)c(C)c1	14	11
Cn1c(=O)[nH]c(=O)c2c1nc(N1CCOCC1)n2Cc1ccccc1F	8	8
CC1CC(=NNC(=S)NCC2CCCO2)CC(C)(C)C1 (stereo not drawn)	-3	2
COCCn1cc(C(=O)N2CCN(C(=O)c3cccs3)CC2)c2nn(-c3ccccc3)c(=O)c-2c1	0	-2
CCC(C)Nc1c2c(nc3c(-c4ccccc4)c(C)nn13)CCC2 (stereo not drawn)	4	4
CCc1nc2c(OCc3ccc(S(C)(=O)=O)cc3)cccn2c1N(C)C(C)=O	11	4
Cc1ccc2c(c1)C(=O)CC(O)(C(F)(F)C(F)F)O2 (stereo not drawn)	0	0
CCCc1cc(CNC(=O)c2ccc(NC3CCc4cccnc43)nc2)on1 (stereo not drawn)	3	1
O=C1COc2ccc(S(=O)(=O)N3CCc4ccccc43)cc2N1	0	-3
CCC1(c2cccc(Cl)c2)NC(=O)N(CN2CCC(C)CC2)C1=O (stereo not drawn)	0&2	-1&4
CCCCc1cnc2c(c1SCc1ccc(C)cc1)c(=O)n(C)c(=O)n2C	5	10
Fc1ccc(N2CCN(c3cc(Oc4ccc(Cl)cc4)ncn3)CC2)cc1	-6	-10
Cc1[nH]c(=O)[nH]c(=O)c1CCc1nnc(SCC(=O)Nc2nccs2)o1	-5	-11
COc1cc(F)ccc1-c1c(-c2ccccc2)ncn1CCn1ccnc1	3	1
The listing continues.
SMILES	NPYLR7 ag	NPYLR7 ag max-min
O=C(c1ccccc1C(F)(F)F)N1CCC(c2ccccc2)CC1	23	8
Cc1cc(Br)oc1C(=O)N1CCC(C)(C)C1	3	2
OC[C@H]1CCCN1c1nnc(C(F)F)s1	-5	-13
O=C(NCc1cnc2c(c1)CCC2)C1CC(=O)N(Cc2ccccn2)C1 (stereo not drawn)	4	3
N#C[C@@H]1C[C@@H]2C[C@@H]2N1C(=O)[C@@H](N)C12CC3CC(CC(O)(C3)C1)C2	-1	-1
COc1ccc(CNC(=O)c2ccc(-c3cccc(C(F)(F)F)c3)s2)cc1	28	32
Cc1c(COC(=O)c2cc(C(N)=O)cn2C)oc2ccccc12	5	4
C=CCNC(=O)Nc1cc(C(=O)N2CCSCC2)ccc1C	-1	-1
CC(=O)N1CCC(Oc2ccc(Cl)cc2C(=O)NCCc2ccc(F)cc2)CC1	4	-2
CN(C(=O)OC(C)(C)C)C1CCN(Cn2ncn(C)c2=S)CC1	11	11
O=C(c1csc(CSc2nnc(-c3ccncc3)n2-c2cccc(C(F)(F)F)c2)n1)N1CCN(Cc2ccc3c(c2)OCO3)CC1	-2	3
COc1ccc(CN2CCc3cc(OC)c(OC)cc3C2CNC(=O)c2ccco2)cc1 (stereo not drawn)	27	35
CC(C)CC(N)C(=O)N(C)Cc1ccccn1 (stereo not drawn)	-21	-21
O=C(Cc1cccs1)OCc1cc(=O)n2ccsc2n1	1	0
CCCn1c(=O)[nH]c2sc3c(c2c1=O)CCN(C(=O)c1ccc(F)c(C)c1)C3	6	6
Cn1ccc2c(NC(=O)NC3CCN(C4CC4)CC3)cccc21	-1	-4
O=c1ccc(-n2ccnc2)nn1CN1CCN(S(=O)(=O)c2ccc(Cl)cc2)CC1	0	0
NC(=O)CSc1nc(=O)n(CCCO)c2c1CCCC2	-4	-8
Cc1ccc(CN2CCOC(CCNS(C)(=O)=O)C2)cc1C (stereo not drawn)	6	3
O=C(C1CCN(C2=NS(=O)(=O)c3ccccc32)CC1)N1CCCC1	-1	2
O=C(N1CCC2(CCCO2)CC1)C1(S(=O)(=O)c2ccccc2)CC1	5	3
COC(=O)c1ccc(/C=C2\N=C(c3ccc(C(C)(C)C)cc3)OC2=O)cc1	12	13
CCC(=O)Nc1cccc(C(=O)NCCn2nc(C)c(CC)c2C)c1	-4	-6
COc1cccc(Cn2ccnc2CN(CCN2CCOCC2)C(=O)c2cccc(F)c2)c1	7	11
C=C(C)CN(CC)c1nc(N)c(C#N)c(C(C#N)Cc2ccccc2F)c1C#N (stereo not drawn)	11	8
FC(F)(F)c1cccc(SCc2csc(Cc3ccc4c(c3)OCO4)n2)c1	-1	-5
COc1ccc(CCNC(=O)c2cc(-c3ccccc3F)n3nc(C(C)(C)C)cc3n2)cc1OC	-7&12	-1&29
CCc1[nH]n(C)c(=O)c1C1=C(N(C)Cc2ccccc2)C(=O)N(c2ccc3c(c2)OCO3)C1=O	5	13
Cc1cc(OCC(=O)O)cc(C)c1[N+](=O)[O-]	-4	-5
CCCCCCCCCc1noc(-c2ccc(C)cc2)n1	-5	-8
O=S1(=O)CCN2N=C(SCc3c(Cl)cccc3Cl)SC2=N1	12	8
CCCNc1ncc(CN2CCCC3(C2)C(=O)N(C)c2ccccc23)cn1 (stereo not drawn)	-2	12
Cc1sc2nc(CC(=O)NCC(O)c3ccccc3F)[nH]c(=O)c2c1C (stereo not drawn)	-2	-5
O=C(CCCS(=O)(=O)c1ccc(F)cc1)Nc1ncnc2sccc12	7	3
CCOC(=O)CCCc1sc(N)nc1-c1[nH]c(=O)[nH]c1C	5	2
COc1cc(NC(=O)c2ccco2)c(OC)cc1Cl	24	14

Complete entries as entered above. Order of screens: NPYLR7 ag, NPYLR7 ag max-min
`O=C(c1ccccc1C(F)(F)F)N1CCC(c2ccccc2)CC1` is entered as 23, 8
`COc1cccc(N2C(=O)CN(CCC(C)C)CC2C)c1` (stereo not drawn) is entered as 13, -1

More compounds follow.
SMILES	NPYLR7 ag	NPYLR7 ag max-min
COc1cccc(Cn2c(C(=O)N3CCN(S(=O)(=O)c4ccc(F)cc4)C(C)C3)cc3ccsc32)c1 (stereo not drawn)	-4	4
Fc1ccc(N2CCN(c3nc4ccccc4n4cnnc34)CC2)cc1	2	2
CC(NCc1ccco1)c1nc2cc(Cl)ccc2c(=O)[nH]1 (stereo not drawn)	11	13
c1coc(CN(Cc2ccsc2)Cc2cnc[nH]2)c1	1	-1
COCCOC(=O)C1=C(C)N(Cc2ccccc2)C(=O)NC1c1ccccc1 (stereo not drawn)	-1	-7
CC(C)C(NC(=O)c1ccccc1Cl)C(=O)NCC1CCCOC1C(C)C (stereo not drawn)	-4	-6
O=C(Cc1cccs1)NCCn1ncc2c(N3CCOCC3)ncnc21	-1	-3
COc1ccc(C)cc1-n1nnnc1SCC(=O)c1ccc(C)cc1C	11	6
CCOC(=O)C(c1ccc(OC)c(OC)c1)C1C=CC(NC(=O)N2CCOCC2)C1 (stereo not drawn)	21	28
O=C(NCc1ccc(-n2ccnc2)nc1)N1CCc2ccccc2C1	9	5
CCc1ccc(-c2cc(C(=O)O)[nH]n2)cc1	-5	-8
Cc1ccc(C2CC(C(F)(F)F)n3ncc(C(=O)N4CCCCC4)c3N2)cc1 (stereo not drawn)	15	1
N#Cc1cc(C(=O)Nc2ccccc2)c(N)nc1SCC(=O)O	-6	-9
O=C(Nc1ccc(C(F)(F)F)cc1)NC1(c2nn[nH]n2)CCC1	-1	384

Gathered by group: the compounds so far containing a Cl atom
SMILES	NPYLR7 ag	NPYLR7 ag max-min
O=C(c1cccc2c1OCCO2)N1CCN(C(c2ccccc2)c2ccc(Cl)cc2)CC1 (stereo not drawn)	34	22
NC(=O)c1cnc(N2CCC(C3CCCCCN3C(N)=O)CC2)c(Cl)c1 (stereo not drawn)	3	3
Cc1[nH]c(=O)c(C(=O)N2CCC(C(O)CC(C)C)CC2)c(C)c1Cl (stereo not drawn)	23	18
COc1cccc(-n2c(-c3ccc(Cl)cc3)cc(C(=O)NCc3ccc(F)cc3)c2C)c1	-8	3
O=c1c(Cl)c(NCC2COc3ccccc3C2)cnn1-c1ccccc1 (stereo not drawn)	1	-2
CN(Cc1cnn(-c2ccccc2)c1)c1ccncc1Cl	3	0
COc1ccc(/C=C/C(=O)N2CCC(n3c(=O)oc4cc(C)ccc43)CC2)c(Cl)c1OC	18	15
CCN1CCN(c2nc(-c3ccc(OC)cc3)nc3cc(Cl)ccc23)CC1	30	38
CCCc1nnc2sc(Cc3ccccc3Cl)nn12	5	5
CCOc1ccc(N=C2SC(C(=O)Nc3cccc(Cl)c3)CC(=O)N2C)cc1 (stereo not drawn)	3	1
CCC1(c2cccc(Cl)c2)NC(=O)N(CN2CCC(C)CC2)C1=O (stereo not drawn)	0&2	-1&4
Fc1ccc(N2CCN(c3cc(Oc4ccc(Cl)cc4)ncn3)CC2)cc1	-6	-10
CC(=O)N1CCC(Oc2ccc(Cl)cc2C(=O)NCCc2ccc(F)cc2)CC1	4	-2
O=c1ccc(-n2ccnc2)nn1CN1CCN(S(=O)(=O)c2ccc(Cl)cc2)CC1	0	0
O=S1(=O)CCN2N=C(SCc3c(Cl)cccc3Cl)SC2=N1	12	8
COc1cc(NC(=O)c2ccco2)c(OC)cc1Cl	24	14
CC(NCc1ccco1)c1nc2cc(Cl)ccc2c(=O)[nH]1 (stereo not drawn)	11	13
CC(C)C(NC(=O)c1ccccc1Cl)C(=O)NCC1CCCOC1C(C)C (stereo not drawn)	-4	-6

High-throughput results as filed in PubChem BioAssay.
